# Bm FixLJ act = activators of Burkholderia fixLJ two-component system, primary screen, B. multivorans, GFP reporter; B. multivorans fixK-promoter GFP reporter, 18 h; active compounds read high; z-score (test concentration not listed); 29,000 tested, 0.3% active; AID 1918990, 2023;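 active = replicate mean overnight rise in green fluorescent reporter signal, 3 or more SD over negative controls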;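 note: score is relative to vehicle wells of the plate; 300 nL library stock went into each well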
# Active calls of the source: *.
SMILES,Bm FixLJ act
CCCN(C(=O)c1cc2c(=O)oc3ccccc3c2s1)c1cccc(Cl)c1,-1.7
COc1ccc2cc3cc(C(=O)Nc4ccccc4C)oc3nc2c1,-1.4
COc1cccc(NS(=O)(=O)c2ccc3[nH]cc(C(=O)NC(C)c4ccccc4)c(=O)c3c2)c1 (stereo not drawn),1.2
COc1ccc(OC)c(NC(=O)c2cc3cc4ccc(C)cc4nc3s2)c1,-1.1
O=C(C1CCCN1)N1CCC2(CC1)OCCc1c2[nH]c2ccccc12 (stereo not drawn),0.17
O=C(c1ccc2c(c1)N(Cc1ccccc1F)C(=O)c1ccccc1S2(=O)=O)N1CCOCC1,-1.5
COc1ccc(OC)c(-c2cc(C(=O)Nc3ccc(C)c(C)c3)no2)c1,0.43
CC(C)Oc1ccc(C(=O)Nc2ccc3oc(-c4ccncc4)nc3c2)cc1,-0.53
O=C(NCc1ccccc1Cl)c1cc(=O)[nH]c2ccc(S(=O)(=O)N3CCCCC3)cc12,-1.1
Cc1c(CN(C)C(=O)NC(C)CN2CCCC2)[nH]c2ccccc12 (stereo not drawn),-0.75
Cn1nccc1C(=O)N1CCC2(CC1)OCCc1c2[nH]c2ccccc12,-1
COc1ccc(CCNC(=O)Cc2c(C)c3c(cc(C)c4c(C)coc43)oc2=O)cc1,0.07
CC(NC(=O)CCN1CCN(C)CC1)c1cnn(-c2ccccc2)c1 (stereo not drawn),0.09
N#C/C(=C\c1cc(Br)c(O)c(Br)c1)c1nc2ccccc2c(=O)[nH]1,-0.43
Cc1ccc(-c2ccccc2CN(Cc2cccnc2)CC2CCC(=O)N2)o1 (stereo not drawn),0.64
CCn1c(CN(C)C)nnc1C1CCN(C(=O)c2ccc[nH]c2=O)CC1,-1.5
COc1cc(OC)c(NC(=O)CCc2c(C)nc3c4c(C)cc(C)nc4nn3c2C)cc1Cl,-0.51
CCOc1ccc(S(=O)(=O)N(CC(=O)NCCSc2ccccc2)c2ccccc2)cc1,-1.3
O=C(COC(=O)c1cccc(NC(=O)c2ccc(Br)cc2)c1)c1ccc(Cl)cc1,-0.97
COc1ccc(CNC(=O)CS(=O)Cc2nc(-c3ccc(OC)c(OC)c3)oc2C)cc1 (stereo not drawn),0.39
Cc1ccc(C)c(NC(=O)Cn2c(=O)n(Cc3ccc4c(c3)OCO4)c(=O)c3ccccc32)c1,-2.5
CCC(=O)N1c2ccc(S(=O)(=O)CCC(=O)NCc3ccc(OC)cc3)cc2CC1C (stereo not drawn),-1.1
COc1ccc2c(c1)CCCC2NC(=O)Cc1cc(=O)[nH][nH]c1=O (stereo not drawn),-2.2
COc1cccc(-c2oc3ccc(C)cc3c(=O)c2O)c1,-0.59
COc1ccc(OC)c(CCNC(=O)Cn2nc(C)n3c(cc4sccc43)c2=O)c1,-1.3
Cc1nn2c(-c3cccc(NC(=O)c4ccc(Cl)cc4)c3)nnc2c2ccccc12,-1.9
COc1ccc(C(CNC(=O)COc2ccc(C)cc2)N2CCCCC2)cc1 (stereo not drawn),-0.83
COc1ccc(OC)c(CN2CCC3(CC2)CC(C(=O)O)N(C(C)=O)C3)c1 (stereo not drawn),-1.4
COc1ccc(NC(=O)Cn2ncc3c2-c2ccccc2OC3)cc1Cl,-2.1
COC(=O)c1ccccc1NC(=O)Cn1c(=O)n(-c2cccc(C(F)(F)F)c2)c(=O)c2c(C)c(C)sc21,-1.1

# Shown with tabs: entries from further up.
structure	Bm FixLJ act
CCn1c(CN(C)C)nnc1C1CCN(C(=O)c2ccc[nH]c2=O)CC1	-1.5
COc1cc(OC)c(NC(=O)CCc2c(C)nc3c4c(C)cc(C)nc4nn3c2C)cc1Cl	-0.51
CCOc1ccc(S(=O)(=O)N(CC(=O)NCCSc2ccccc2)c2ccccc2)cc1	-1.3
O=C(COC(=O)c1cccc(NC(=O)c2ccc(Br)cc2)c1)c1ccc(Cl)cc1	-0.97
COc1ccc(CNC(=O)CS(=O)Cc2nc(-c3ccc(OC)c(OC)c3)oc2C)cc1 (stereo not drawn)	0.39
Cc1ccc(C)c(NC(=O)Cn2c(=O)n(Cc3ccc4c(c3)OCO4)c(=O)c3ccccc32)c1	-2.5
CCC(=O)N1c2ccc(S(=O)(=O)CCC(=O)NCc3ccc(OC)cc3)cc2CC1C (stereo not drawn)	-1.1
COc1ccc2c(c1)CCCC2NC(=O)Cc1cc(=O)[nH][nH]c1=O (stereo not drawn)	-2.2
COc1cccc(-c2oc3ccc(C)cc3c(=O)c2O)c1	-0.59
COc1ccc(OC)c(CCNC(=O)Cn2nc(C)n3c(cc4sccc43)c2=O)c1	-1.3
Cc1nn2c(-c3cccc(NC(=O)c4ccc(Cl)cc4)c3)nnc2c2ccccc12	-1.9
COc1ccc(C(CNC(=O)COc2ccc(C)cc2)N2CCCCC2)cc1 (stereo not drawn)	-0.83
COc1ccc(OC)c(CN2CCC3(CC2)CC(C(=O)O)N(C(C)=O)C3)c1 (stereo not drawn)	-1.4

# Later entries.
SMILES,Bm FixLJ act
Cc1nccn1CC1CCN(C(=O)CSc2nnc(N)s2)CC1,0.75
COc1ccc(CCn2c3c(c(=O)[nH]c2=O)C(NC(=O)c2ccc(C(C)(C)C)cc2)(C(F)(F)F)C(=O)N3)cc1OC (stereo not drawn),-1
Cc1ccc(OCCCn2c(-c3ccc(Cl)cc3)nc3ccccc3c2=O)c(C)c1,-0.74
CCN(CC)C(=O)Cn1c(=O)n(CCCCCC(=O)NCc2ccc(C)cc2)c(=O)c2sccc21,-0.56
CCCCC(=O)Nc1ccc(OCc2cc(=O)n3c(C)csc3n2)cc1,-0.28
CCc1ccccc1NC(=O)CCCSc1nc(-c2ccco2)cc(C(F)(F)F)n1,-1.5
COc1cc(C)c(C)cc1S(=O)(=O)N1CCN(c2cc(C)nc3ncnn23)CC1,-1.7
COc1ccc(CNC(=O)Cn2c(=O)oc3cc(S(=O)(=O)N4CCCC4)ccc32)cc1,0.78
CC(C)(C)c1ccc(Oc2nc3ccccn3c(=O)c2/C=C(\C#N)c2nc3ccccc3[nH]2)cc1,0.71
CCC(=O)NCC(=O)N1CCOC(CO)C1c1ccc(OC)c(OC)c1 (stereo not drawn),-3.4
CCc1ccc(C2c3c(oc4ccc(F)cc4c3=O)C(=O)N2CCc2ccc(OC)cc2)cc1 (stereo not drawn),-0.88
Cc1ccc(S(=O)(=O)Nc2cc3c(C(=O)OCc4ccccc4)c(C)oc3c3ccccc23)cc1,-0.59
O=C(COc1ccc(Cl)cc1Cl)Nc1cccc2cccnc12,-0.67
CC(C)Cc1cc(CNC(=O)Nc2cc(S(N)(=O)=O)ccc2Cl)on1,-0.52
Cc1cccc(Cl)c1NC(=O)NCCc1noc(C(C)C)n1,-1.5
CC(=O)c1ccc(NC(=O)CCc2c(C)nc3c(c2C)c(=O)n(C)c(=O)n3C)cc1,-0.5
N#Cc1cc2c(nc1SCC(=O)Nc1ccc(Cl)c(C(F)(F)F)c1)C1CCN2CC1,-2.4
O=C1CC(c2ccc(-n3cncn3)cc2)c2c(nc3ccccn23)CN1 (stereo not drawn),-0.48
COc1cc(NC(=O)C(CC(C)C)NS(=O)(=O)c2ccc3c(c2)CCN3C(C)=O)cc(OC)c1 (stereo not drawn),-1.3
COc1ccc(-n2nc(C(=O)NCCc3ccc(OC)c(OC)c3)c3c4ccccc4n(C)c3c2=O)cc1,0.29
COc1cccc2cc(C(=O)Nc3ccc(F)c(F)c3)c(=O)oc12,0.35
CCC(Cc1ccccc1)NC(=O)CN1C(=O)COc2ccc(S(=O)(=O)N3CCCCCC3)cc21 (stereo not drawn),-0.22
CCOc1ccc(CCNC(=O)c2cc3c(=O)n(C)c4ccccc4c3n2C)cc1,0.09
COc1ccc(NC(=O)Cc2coc3cc(C)cc(C)c23)c(OC)c1,0.22
COc1ccc(CCNC(=O)CCCn2c(=O)c3ccccc3n(CC(=O)Nc3cc(Cl)ccc3C)c2=O)cc1OC,-1.1
COc1ccc(COC(=O)C2=C(C)NC(=O)CC2c2cccc(Cl)c2Cl)cc1 (stereo not drawn),0.52
Cc1cc(C(=O)NC2CC(C)(C)Cc3nc(N(C)Cc4ccccc4)ncc32)n[nH]1 (stereo not drawn),-1.6
Cc1ccc(CC(=O)NCc2nc(-c3ccccc3)no2)cc1,-0.78
COc1ccccc1NC(=O)c1sc2nc(C)c(C(=O)Nc3ccc(C)cc3C)c(-c3cccs3)c2c1N,-0.94
O=C(NCCc1nc(C(=O)O)cs1)c1cnc(C2CC2)nc1,0.33
COc1cccc(C(=O)N(Cc2cccc(Cl)c2)Cc2ccco2)c1,-1.2
Cc1cc(OCC(=O)N(Cc2ccc(N(C)C)cc2)Cc2ccco2)cc(C)c1Cl,-0.3
O=C(NCCc1csc(-c2ccncc2)n1)c1cnccn1,-1.6
COc1ccc(CNc2oc(/C=C/c3cc(OC)c(OC)c(OC)c3)nc2C#N)cc1,-0.1
CC(C)OC(=O)N1CCC(c2nnc(CN3CCCCC3)n2C)CC1,-0.04
O=C(C1CCC1)N1CC2CCC(C1)N(C(=O)c1ncccc1O)C2 (stereo not drawn),-0.57
COc1ccc(NC(=O)c2cc3c(s2)-c2c(C)cccc2OC3)cc1Cl,-0.42
CC(NC(=O)Cn1c(=O)oc2ccccc21)c1cnn(-c2ccc(F)cc2)c1 (stereo not drawn),0.08
COc1ccc(-c2nc3ccccc3n2Cc2ccc(C(C)C)cc2)cc1,1.6
Cc1cc2nc(-c3ccccc3)cc(NC(C)Cc3cnccn3)n2n1 (stereo not drawn),0
Cc1c(CN(C)C(=O)c2cc(-c3ccccc3)nc3ccc(Br)cc23)cnn1C,-1.9
CCc1ccc(NC(=O)Cn2c(=O)n(-c3ccc(Cl)c(Cl)c3)c(=O)c3c(C)c(C)sc32)cc1,-1.3
CCN(C(=O)Nc1ccc(-c2nc(C)no2)cc1)C1CCS(=O)(=O)C1 (stereo not drawn),-0.37
COc1ccc(NC(=O)Cn2c(SCc3cc(C)ccc3C)nc3ccncc32)c(OC)c1OC,-0.84
COc1ccc(-c2cc(C(F)(F)F)nc(SCC(=O)Nc3ccc(O)cc3)n2)cc1OC,-1.7
Cc1cccc(C)c1OCCCn1c(CCNC(=O)C2CCCCC2)nc2ccccc21,0.05
Cc1ccc(-c2nc(SCC(=O)NCC3CCCO3)c(-c3ccc(C)cc3)[nH]2)cc1 (stereo not drawn),-1.5
COc1ccc(-c2nc(S(=O)(=O)c3ccccc3)c(N3CCC(C)CC3)o2)cc1,0.14
Clc1ccccc1CNc1nc2ccccc2c2nc(-c3ccccc3)nn12,0.26
CN1CCN(CCC=C2c3ccccc3Sc3ccc(S(=O)(=O)N(C)C)cc32)CC1,-1.4
Cc1ccccc1Cn1c(=O)n(CCCCC(=O)NCCc2ccccc2)c(=O)c2ccccc21,-3.1
O=C(CCc1cc(=O)[nH]o1)N1CCCC(Cc2nc3ccccc3[nH]2)C1 (stereo not drawn),-0.21
CC(CNC(=O)c1csc2c1CCCCC2)c1ccccc1 (stereo not drawn),-2.3
Cc1ccc(CNC(=O)Cn2c(=O)n(Cc3ccc(F)cc3)c(=O)c3sc4ccccc4c32)cc1,0.04
CCOC(=O)Cn1nc(C)c(NC(=O)COc2ccc(OC)cc2)c1C,-0.91
COc1cccc2c1cc1c(=O)n(CC(=O)NC3CCCCC3)nc(C)n12,-0.9
CSc1ccc(CCNC(=O)C2=C(C)C(=O)OC23CCCCC3)cc1,-0.29
Cc1cccc(C)c1OC1CN(CCC(=O)Nc2nccs2)C1,-1
COc1ccc(CNCCC(c2ccc(C)cc2)c2ccco2)cc1 (stereo not drawn),-1.3
O=C(NC(c1ccccc1)c1ccncc1)C1(N2CCOCC2)CCCCC1 (stereo not drawn),-0.77
# (listing goes on)
SMILES,Bm FixLJ act
Cc1ccc(Cl)cc1NC(=O)Cn1c(=O)n(Cc2ccc(C(=O)NCc3ccc4c(c3)OCO4)cc2)c(=O)c2ccccc21,-0.94
CC(=O)c1cccc(NC(=O)c2cc(-c3ccc(Cl)s3)nc3ccccc23)c1,0.67
Cc1cc(CC2COCC2NC(=O)N(C)Cc2cnc3ccccn23)on1 (stereo not drawn),0.51
Cc1cccc(N2CCN(c3nc4ccccc4c(=O)n3-c3ccc(Cl)cc3)CC2)c1C,-0.58
CCC(=O)N1c2ccc(S(=O)(=O)N3CCN(c4ccccc4Cl)CC3)cc2CC1C (stereo not drawn),-1.5
Cc1n[nH]c(C)c1CCC(=O)N(C)Cc1csc(C(C)C)n1,-1.8
CCOc1ccc(CN2C(=O)c3ccccc3Sc3ccc(C(=O)NCCc4ccccc4)cc32)cc1,-0.27
CCOC(=O)c1ccc(NC(=O)CC2Nc3cccc4cccc(c34)NC2=O)cc1 (stereo not drawn),-0.66
CCCCSc1ncnc2c1sc1nc(N3CCOCC3)c3c(c12)CCCC3,-0.36
C[C@@H]1C(=O)O[C@H]2C[C@@]34[C@H]5C[C@@H](C(C)(C)C)[C@]36[C@@H](OC(=O)[C@@H]6O)O[C@@]4(C(=O)O5)[C@]21O,1.5
CCOc1cc(C(=O)N2CC(=O)Nc3ccc(C)cc3C2c2ccccc2)cc(OCC)c1OCC (stereo not drawn),2
CCC(C)n1c(=N)c(S(=O)(=O)c2ccccc2)cc2c(=O)n3ccccc3nc21 (stereo not drawn),-2.8
O=C(c1ccc2c(c1)N(Cc1c(F)cccc1Cl)C(=O)c1ccccc1S2)N1CCOCC1,-1.7
CC1=C(C(=O)Nc2ccc(Cl)cc2)C(CC(C)C)n2nc(SCc3ccccc3C)nc2N1 (stereo not drawn),-0.68
COc1ccc(NC(=O)C2CCCN(S(=O)(=O)c3ccc(Cl)cc3)C2)cc1 (stereo not drawn),-0.69
Cc1ccc(/C=C(\C#N)C(=O)Nc2ccc(Br)cc2)o1,-0.85
CCOc1ccc(NC(=O)c2cnn(-c3ccccc3)c2-n2cccc2)cc1,0.15
O=C(O)CCCc1ccccc1,-1.7
COc1cccc2c1C1(CCN(C(=O)CCC(=O)N3CCCCCC3)CC1)OCC2,0.47
Fc1ccc(Cc2cn3cc(-c4ccc(F)cc4)nc3s2)cc1,-1.7
Cn1nnnc1SCCNC(=O)C1CCCCN1Cc1ccccc1 (stereo not drawn),1.1

# Source: PubChem

# Not all compounds are listed, so the mix of outcomes need not match the whole.
